High-throughput results (PubChem)
Biofilm kill mix: mixtures killing C. albicans biofilm; 0.02% of 120,000 active; C. albicans biofilm persisters + clotrimazole, fluorescence viability; primary screen in compound mixtures of four per well; AID 1242; inhibition, % at 7.6 µM;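 active = inhibition above 30.3% in the primary screen of four-compound pools, then above 30% when the compound was retested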;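 also: compounds exposed to preformed 24 h biofilms for 48 h; the number belongs to the whole pool; some results filed as inactive read as strong as hits; inactives centre near 12; 0% = biofilm with clotrimazole alone and 100% = kill control; retested singly at about 60 µM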
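Assay system: C. albicans biofilms / Medium: RPMI/MOPS medium, pH 7.0 / Schedule: biofilm formation 24 h, compound exposure 48 h, 37 °C / Measured by: Alamar Blue fluorescence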
The depositor's hits bear a star. Only part of the results is shown; count on the stated rates, not on these rows.

SMILES	Biofilm kill mix
CC1CN(C(=O)Nc2ccc3c(c2)OCCO3)CC(C)O1 (centres undefined)	10
CSc1sc(C#N)c2c1/C(=N\O)CCC2	15
COc1ccccc1CCNC(=O)/C(=C/c1cccnc1)NC(=O)c1ccccc1	8
CN(C)c1ccc(C(=O)N2CCN(c3cc(C(F)(F)F)nc4ccccc34)CC2)cc1	15
CC(Oc1cccc(Cl)c1)C(=O)Nc1ccncc1 (centres undefined)	19
O=c1c2sccc2nc(SCc2cc(=O)n3ccccc3n2)n1-c1ccc(Br)cc1	14
CCOC(=O)CSC1=N/C(=C/c2ccc(-n3cncn3)cc2)C(=O)N1C(C)=O	22
O=C(Nc1ccccc1C(=O)Nc1nncs1)c1ccccc1	17
Cc1ccc(CN(CC(=O)NC2CCCC2)C(=O)CSc2nnc(COc3ccccc3)o2)cc1	21
CC(C)C[C@H](NC(=O)c1nc[nH]c1C(=O)NC(c1ccccc1)c1ccccc1)C(=O)OC(C)(C)C	16
COc1ccc([N+](=O)[O-])cc1/C=N/NC(=O)c1nonc1N	1
Cc1ccc(OC(=O)CCC(=O)NC(C)c2ccccc2)cc1 (centres undefined)	18
COc1cc(-c2nc(S(=O)(=O)c3ccc(Cl)cc3)c(N(C)C)o2)cc(OC)c1OC	8
Cc1ccc(C#N)c(SCc2ccccc2[N+](=O)[O-])n1	14
COc1ccc(C(=O)/C(=C/O)N=Nc2ccc(F)cc2)cc1	21
CS(=O)(=O)N(CC(=O)N1CCN(Cc2ccc3c(c2)OCO3)CC1)C1CCCCC1	5
CC(C)[C@H](NC(=O)Nc1cccc(Br)c1)C(=O)O	15
CC(C)(C)NC(=O)C(c1ccncc1)N(CC1CCCO1)C(=O)Cn1nnc(-c2ccc(F)cc2)n1 (centres undefined)	13
CCCCNC(=O)NNC(=O)COc1cccc(C)c1C	8
CC1(C)Cc2nc3sc(C(N)=O)c(N)c3cc2CO1	3
Cc1cc2cc(CNC(=O)c3cccc([N+](=O)[O-])c3)ccc2[nH]1	2
COc1ccc(-n2c(C)csc2=S)cc1	5
COC(=O)c1c(N2C(=O)Nc3ccccc3N2O)sc2c1CCCC2	9
Cc1ccccc1N1CC2=C(C1=O)C(c1ccccc1)NC(=O)N2C (centres undefined)	15
CN1CCN(CC(=O)Nc2cc(N(C)C)nc3ccccc23)CC1	5
CNc1ccc(Cl)nn1	-10
O=C(/C(=C/O)N=Nc1ccccc1)c1ccco1	18
CCn1c(O)c(N=NC(=O)c2ccc(CSc3nncn3C)cc2)c2ccccc21	13
c1ccc(-c2nc(-c3nccc4ccccc34)oc2-c2ccccc2)cc1	14
COc1ccc(-c2csc(N3C(=O)C4C5c6ccccc6C(c6ccccc65)[C@@H]4C3=O)n2)cc1 (some centres undefined)	15
CCN1CCN(C(=O)c2cc(COc3ccc4ncccc4c3)on2)CC1	15
CCOCCn1c(CN2CCc3ccccc3C2)nc2c1c(=O)n(C)c(=O)n2C	21
COCCNCc1ccc(Cl)cc1Cl	0
OCCNCCSc1nc(C2CCCCC2)n(-c2ccccc2Cl)n1	6
O=C(NC1CCCC1)C1CCN(C(=O)NCc2ccccc2)CC1	10
COc1ccccc1NC(=S)c1ccccc1	7
O=C(CN1CCN(S(=O)(=O)c2ccccc2)CC1)Nc1ccc(N2CCOCC2)cc1	23
Cc1occc1C(=O)O/N=C(\N)c1ccccc1	34
CC(C)OC(=O)CC1C(=O)NCCN1C(=S)NC(=O)c1ccc(F)cc1 (centres undefined)	12
CNC(=O)Nc1cccc(-c2cc(-c3c(Cl)cccc3Cl)no2)c1	20
O=c1nc(-c2ccccc2)n(-c2ccccc2)[nH]1	2
COCCNC(=O)CSc1nnc(-c2ccc(C)cc2)c(-c2ccc(C)cc2)n1	-28
CSc1cccc(NC(=S)N(CCN(C)C)C(C)c2ccccn2)c1 (centres undefined)	9
CCn1c(C)cc(C)c(C#N)c1=O	16
CCn1c(-c2cccn(Cc3ccccc3)c2=O)n[nH]c1=S	17
CCc1ccc(NC(=O)CC2C(=O)N(c3cccc(C)c3)C(=O)N2C2CC2)cc1 (centres undefined)	8
O=[N+]([O-])c1cc(Br)cc(C=Nc2ccc3c(c2)OCO3)c1O	17
O=C(NN1C(=O)C2C3C=CC(C3)C2C1=O)c1ccccc1 (centres undefined)	15
COC(=O)c1sccc1NC(=S)Nc1cc(OC)ccc1OC	10
NS(=O)(=O)c1ccc(CCNC(=O)NC23CC4CC(CC(C4)C2)C3)cc1	4

Some of the entries so far, in markdown:
| mol | Biofilm kill mix |
| --- | --- |
| COc1ccc(-c2csc(N3C(=O)C4C5c6ccccc6C(c6ccccc65)[C@@H]4C3=O)n2)cc1 (some centres undefined) | 15 |
| CCN1CCN(C(=O)c2cc(COc3ccc4ncccc4c3)on2)CC1 | 15 |
| CCOCCn1c(CN2CCc3ccccc3C2)nc2c1c(=O)n(C)c(=O)n2C | 21 |
| COCCNCc1ccc(Cl)cc1Cl | 0 |
| OCCNCCSc1nc(C2CCCCC2)n(-c2ccccc2Cl)n1 | 6 |
| O=C(NC1CCCC1)C1CCN(C(=O)NCc2ccccc2)CC1 | 10 |
| COc1ccccc1NC(=S)c1ccccc1 | 7 |
| O=C(CN1CCN(S(=O)(=O)c2ccccc2)CC1)Nc1ccc(N2CCOCC2)cc1 | 23 |
| Cc1occc1C(=O)O/N=C(\N)c1ccccc1 | 34 |
| CC(C)OC(=O)CC1C(=O)NCCN1C(=S)NC(=O)c1ccc(F)cc1 (centres undefined) | 12 |
| CNC(=O)Nc1cccc(-c2cc(-c3c(Cl)cccc3Cl)no2)c1 | 20 |
| O=c1nc(-c2ccccc2)n(-c2ccccc2)[nH]1 | 2 |
| COCCNC(=O)CSc1nnc(-c2ccc(C)cc2)c(-c2ccc(C)cc2)n1 | -28 |
| CSc1cccc(NC(=S)N(CCN(C)C)C(C)c2ccccn2)c1 (centres undefined) | 9 |
| CCn1c(C)cc(C)c(C#N)c1=O | 16 |
| CCn1c(-c2cccn(Cc3ccccc3)c2=O)n[nH]c1=S | 17 |
| CCc1ccc(NC(=O)CC2C(=O)N(c3cccc(C)c3)C(=O)N2C2CC2)cc1 (centres undefined) | 8 |
| O=[N+]([O-])c1cc(Br)cc(C=Nc2ccc3c(c2)OCO3)c1O | 17 |
| O=C(NN1C(=O)C2C3C=CC(C3)C2C1=O)c1ccccc1 (centres undefined) | 15 |

(next part)
SMILES	Biofilm kill mix
COc1cc(OC)cc(-c2nnc(SCC(=O)Nc3cccc(C(=O)O)c3)s2)c1	4
O=C(CCc1ccc(O)cc1)NNC(=S)NCCc1ccccc1	14
Cc1cc(C)nc(-n2nc(C)cc2NC(=O)C(C)C)n1	13
CCn1c(CNc2nc(-c3ccccc3)cs2)nnc1SCC(=O)NCc1ccccc1	11
CN(C)S(=O)(=O)N1CCN(c2ccc([N+](=O)[O-])c(NC3CC3)c2)CC1	15
Cc1nc(CNC(=O)c2cc(COc3ccc(F)cc3Cl)on2)cs1	10
CN(C)c1ccc(/C=N/NC(=O)c2ccc3nc[nH]c3c2)cc1	4
Cc1nc2ccc(NC(=O)N(C)c3ccccc3)cc2s1	14
CCC(C)NC(=S)Nc1ccc(C(=O)OC)cc1 (centres undefined)	12
Cc1ccc(-n2nc(C)c(NC(=O)CCl)c2C)cc1C	10
Cc1ccc(C(=O)N2CCC3(CC2)Oc2ccc(F)cc2C(=O)C32CC(c3cccnc3)=NO2)s1 (centres undefined)	7
CCCN(CCC)C(=O)Cn1c(=O)n(CCCCCC(=O)Nc2ccccc2)c(=O)c2sccc21	17
COc1ccccc1CC(=O)NNC(=O)c1cccs1	22
CCC1=NC(c2ccc(OC)c(OC)c2)N(O)C1(C)C (centres undefined)	9
CN(CC(=O)c1c(N)n(C)c(=O)n(C)c1=O)c1ccccc1	26
Cc1c(C(=O)O)sc2nc(CSc3nnc(-c4ccc(F)cc4)n3C)[nH]c(=O)c12	7
O=C(c1c(F)cccc1F)N1CCC(n2nnc3cc(C(F)(F)F)ccc32)CC1	29
Cc1nn(C)cc1C1C(C#N)=C(N)N(c2cccnc2)C2=C1C(=O)CCC2 (centres undefined)	18
CCN(Cc1ccccc1)c1ccc(/C=N/N=C(N)N)cc1	7
CC(C)c1nnc(NC(=O)C2CCCO2)s1 (centres undefined)	17
CC1CCCC(NC(=O)COC(=O)COc2ccccc2Cl)C1C (centres undefined)	5
Cc1cc(C)nc(N2CCCC(C(=O)NCc3ccccc3)C2)n1 (centres undefined)	13
CCCNC(=S)NCc1ccc(Cl)cc1	8
COc1ccc(C(=S)NCS(=O)(=O)c2ccc(C)cc2)cc1	14
CCc1ccc(N(CC(=O)Nc2ccccc2C(=O)N2CCOCC2)S(C)(=O)=O)cc1	10
COc1ccc(-c2nc(N)n(C(=O)c3cccs3)n2)cc1	5
Cc1ccc(N(C)C(=O)c2ccc(CNc3c(N4CCC(C)CC4)c(=O)c3=O)cc2)cc1	24
CN1CCCN(S(=O)(=O)c2ccc(Cl)c(Cl)c2)CC1	19
S=c1[nH]nc(-c2ccc3ccccc3n2)n1-c1ccc2ncccc2c1	14
CCOC(=O)C1(CC2CC2)CCN(S(=O)(=O)C[C@]23CC[C@H](CC2=O)C3(C)C)CC1	6
Fc1ccc(CSc2nnc(-c3ccncc3)o2)cc1	4
CN(C)N(C)C(=O)C(O)(c1ccccc1)c1ccccc1	8
Cc1cc(O)c(N)c(C)c1Cl	23
CC(=O)c1c(C)[nH]c(C(=O)OCc2cccc(Cl)c2)c1C	12
NS(=O)(=O)c1ccc(NC(=S)N2CCN(Cc3ccc4c(c3)OCO4)CC2)cc1	14
CCN(CC)c1ccc(/C=N/NC(=O)c2cc(C)nc3ccccc23)cc1	12
COC(=O)c1ccc(Cn2cc([N+](=O)[O-])cn2)cc1	10
COc1ccc(N=C2SC(CC(=O)Nc3ccccc3)C(=O)N2Cc2ccco2)cc1 (centres undefined)	20
O=C(O)c1c2c(nc3ccccc13)-c1ccccc1CC2	13
COC(=O)[C@@H]1C[C@@]2(O)[C@H](O)[C@H](O)[C@H](O)C[C@H]2N1Cc1ccc(C)s1	18
S=C(NCC1CCCO1)NC1CC1 (centres undefined)	19
COCCCNS(=O)(=O)c1ccc(SC)cc1	9
CC(C)(C)c1cc(C(=O)NN)n(Cc2ccc(Cl)cc2Cl)n1	9
CCOc1ccc(-c2csc(NC(=O)CSCC(=O)O)n2)c2ccccc12	21
O=[N+]([O-])c1cccc(COc2ncnc3cc([N+](=O)[O-])ccc23)c1	17
COc1cc(CCCN2C(N)=NC[C@H]2Cc2ccc(O)cc2)cc(OC)c1OC	14
COc1ccc(/C=C(/C#N)C(=O)Nc2ccc(O)cc2)cc1C(=O)O	24
CCCCNC(=O)C1CCN(C(=O)Nc2ccc(C)cc2)CC1	12
O=C(COC(=O)COc1ccccc1)NCc1ccccc1	1
CC(C)OCCCNC(=S)NNC(=O)c1ccc(Cl)c(Cl)c1	9
Carrying on:
SMILES	Biofilm kill mix
COc1cc(/C=C/C(=O)OCC(=O)c2c[nH]c3ccccc23)ccc1OC(F)F	20
CC(=O)NC(CC(=O)O)c1ccc([N+](=O)[O-])cc1 (centres undefined)	20
O=C(CCN1CCN(Cc2ccccc2)CC1)NNC(=O)Cc1ccc(Cl)c(Cl)c1	7
COc1ccc(NC(=O)CC2C(=O)N(c3ccc(Cl)cc3)C(=S)N2CCc2ccccn2)cc1 (centres undefined)	12
COc1ccc(O)c(/C=N/NC(=O)c2cc(=O)[nH]c3ccccc23)c1	8
Clc1nssc1=Nc1ccc(Br)cc1	1
Cc1nn(-c2ccccc2)c(N)c1C(c1ccc(C(C)C)cc1)c1c(C)nn(-c2ccccc2)c1N	21
S=c1[nH]nc(C2CCCCC2)n1/N=C/C(Cl)=C\c1ccccc1	8
CCOc1ccc(N2C(=O)/C(=C\c3ccc(O)c(OC)c3)S(=O)(=O)C2c2cccc([N+](=O)[O-])c2)cc1 (centres undefined)	16
CCCCCn1c2c(c(=N)c3ccccc31)CCC2	14
CCO[C@@H]1OC(C(=O)N2CCN(Cc3ccccc3)CC2)=C[C@H](c2ccc(C(F)(F)F)cc2)[C@H]1CCCO	10
Cc1cc(NC(=NC2CC2)c2ccccc2)n(-c2ccccc2)n1	7
O=C(NCc1cccnc1)c1ccc(Br)s1	24
OC(COCC(F)(F)C(F)(F)C(F)(F)C(F)F)Cn1c2ccc(Cl)cc2c2cc(Cl)ccc21 (centres undefined)	21
CCOc1ccc(C(=S)N2CCN(C)CC2)cc1	18
COc1ccc(C(=O)N2CCN(c3ccccc3OC)CC2)cc1	15
CN(C)CCN1C(=O)C(=O)/C(=C(/O)c2ccc3c(c2)OCCO3)C1c1ccccn1 (centres undefined)	10
OCCC1CN(Cc2nc(-c3ccc(F)cc3)cs2)CCN1CCc1ccccc1 (centres undefined)	15
CCc1nc(CN2CCCC(C(=O)c3ccc4c5c(cccc35)CC4)C2)c(C)[nH]1 (centres undefined)	14
CC(=O)c1ccc(Oc2ncnc3sccc23)cc1	10
Cc1ccnc(SCc2ccc([N+](=O)[O-])cc2)n1	13
O=C(Nc1ccc(Br)cc1)c1ccc(F)c(S(=O)(=O)NCc2cccs2)c1	14
CCOC(=O)CC1C(=O)NCCN1C1CCCC1 (centres undefined)	19
C#CCOCCOCCOCCNc1nc(N2CCN(C(=O)[C@H]([C@@H](C)CC)n3cc([C@@H](N)CO)nn3)CC2)nc(N2CCN(C(=O)[C@H](Cc3cc4ccccc4[nH]3)n3cc([C@@H](N)Cc4ccc(O)cc4)nn3)CC2)n1	20
CSCCC(NS(=O)(=O)/C=C/c1ccccc1)C(=O)NCCc1ccc(S(N)(=O)=O)cc1 (centres undefined)	18
CCOC(=O)C1=C(c2ccccc2)NC(=O)NC1c1ccc(OC)c(OC)c1 (centres undefined)	10
C=CCSc1nccc(=O)[nH]1	14
